# Menin MLL FP FL – displaces fluorescein MLL peptide from human menin | AID 1766 | FP activity change, % at 61.4 µM | 290,000 tested, under 10 active | Fluorescence polarization, fluorescein-MLL peptide displacement from menin; inconclusive = falling polarisation curve, or a change in total fluorescence; inactive = total fluorescence flat and polarisation flat or rising; no compound was filed as active; the % refers to the polarisation; negative = inhibition;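 further: % of control where 0% means no effect; inhibitors lower the polarisation; unlabelled MLL peptide was the positive control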
# ClpP mod – qHTS Assay for Activators of ClpP. ATP-dependent Clp protease proteolytic subunit (Bacillus subtilis (strain 168)), P80244. purified B. subtilis ClpP, FRET peptide cleavage, 20 min. Potency, µM (titrated, usually from 57.5 µM), without a hit: at the top dose activity change, negative = active. 1.9% of 340,000 active. AID 651965, 2013; active = well fitted falling curve with a large enough effect; inconclusive = small, poorly fitted or top-dose-only effect; inactive = no such curve, though single readings can be large or run the other way; further: potency means the concentration at half of the fitted maximal effect; the source files actives as falling curves though it sought activators and does not explain the sign; nearly all actives have a fitted effect of over 65% in size; many hits overshoot -100%
# Target sequence (P80244 whole entry, looked up): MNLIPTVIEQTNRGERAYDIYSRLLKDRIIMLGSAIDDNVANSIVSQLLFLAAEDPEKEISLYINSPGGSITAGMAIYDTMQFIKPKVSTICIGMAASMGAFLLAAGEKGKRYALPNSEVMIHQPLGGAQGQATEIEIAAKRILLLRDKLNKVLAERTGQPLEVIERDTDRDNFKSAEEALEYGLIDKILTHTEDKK
#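 ClpP 10 microg/mL final, pH 8 Tris/KCl buffer with BSA, glycerol, Tween-20; compound pinned in; FRET-FV substrate; RT 20 min; Ex320/Em430; ΔFRET vs ADEP 5.8 microM, DMSO, no enzyme.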
# gsp agonist – activates gsp, the McCune-Albright syndrome mutation. gsp mutant cells, cAMP HTRF, 30 min; control for the full effect not named in the record. Potency, µM (top dose mostly 76.9 µM), for inactives: at the highest dose activation (cAMP increase), usual class: activators. 0.13% of 340,000 active; active = well fitted activation curve with a large enough effect; inconclusive = small, poorly fitted or top-dose-only effect, or another doubt; inactive = no such curve, though single readings can be large or run the other way; cell line not stated here;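 further: phosphodiesterase inhibitor Ro 20-1724 added with compounds to block cAMP breakdown; potency means the concentration at half of the fitted maximal effect; nearly all actives have a fitted effect of over 60% in size; about a fifth of the inactives were tested at one dose only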
#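 Cells stably selected in G418 were plated at 2000/well, grown 16-24 hr, then given compounds in DMSO with the PDE inhibitor […] (300 uM solution added) for 30 min at 37C; cAMP was read by HTRF.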
# D2 PAM – positive allosteric modulators of human D2 dopamine receptor; P14416; DiscoveRx D2 beta-arrestin cells, luminescence, 90 min; 100% = 57 uM dopamine signal; potentiation, % (no concentration beside the values); 0.23% of 360,000 active; AID 624464; active = potentiation of 50% or more; inconclusive = 30% to 50%; inactive = 30% or less;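 further: compound concentration not given in the record; tested on top of an EC20 dose of dopamine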
# Target sequence (P14416 whole entry, looked up): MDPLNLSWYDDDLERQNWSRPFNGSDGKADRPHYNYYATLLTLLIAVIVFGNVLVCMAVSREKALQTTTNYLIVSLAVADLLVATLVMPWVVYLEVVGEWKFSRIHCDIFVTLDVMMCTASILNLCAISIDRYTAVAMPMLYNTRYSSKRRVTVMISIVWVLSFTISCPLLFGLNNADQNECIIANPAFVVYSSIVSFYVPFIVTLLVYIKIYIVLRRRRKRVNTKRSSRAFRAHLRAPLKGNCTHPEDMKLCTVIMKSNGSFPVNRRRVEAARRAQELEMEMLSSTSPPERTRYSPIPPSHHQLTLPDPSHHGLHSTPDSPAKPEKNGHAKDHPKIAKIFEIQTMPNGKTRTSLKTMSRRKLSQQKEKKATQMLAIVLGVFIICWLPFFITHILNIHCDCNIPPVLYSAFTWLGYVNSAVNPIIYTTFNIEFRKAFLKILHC
#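 PathHunter beta-arrestin assay in DiscoveRx D2 cells. Compounds were added with an EC20 of dopamine (50 nM final) for 90 min at 37 deg C. Luminescence was read 1 h after detection reagent, with 57 uM dopamine as the EC100 control.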
# TRPV1 potentiator – enhances activation of the human vanilloid receptor TRPV1; Q8NER1; 0.02% of 320,000 active; AID 540277; TRPV1-expressing cells, Fluo-8 calcium influx, capsaicin EC20 potentiation; host cell line not named in the record; control for the full effect not named in the record; potentiation, % at 8.33 µM; active means potentiation above 80%; inconclusive means 30% to 80%; inactive means below 30%; further: 0% is about no effect
#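 Cells expressing TRPV1 were dye-loaded with Fluo-8 and read kinetically: 10 s baseline, 3 min after compound (agonist portion), then 2 min after EC20 capsaicin (allosteric enhancer portion). Calcium-bound dye fluorescence at 480/520 nm.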
# Sfp inh – inhibitors of Bacillus subtilis Sfp phosphopantetheinyl transferase; Biochemical Sfp PPTase activity, qHTS; Potency, µM, inactives show max response, negative = inhibition, actives largely listed as inhibitors; 3.5% of 310,000 active; AID 1490; active means well fitted inhibition curve with a large enough effect; inconclusive means small, poorly fitted or top-dose-only effect, or another doubt; inactive means no such curve, though single readings can be large or run the other way;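 further: the enzyme is Sfp with the accession as filed and its product quenches rhodamine fluorescence; potency means the concentration at half of the fitted maximal effect; 0% = enzyme reaction without inhibitor and -100% = no enzyme wells; top concentration of the series not given in the record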
#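 Buffer: 50 mM Hepes-Na pH 7.6, 10 mM MgCl2, 0.01% Nonidet P-40, 0.01% BSA. Enzyme 15 nM, pre-exposed to compound 15 min; substrates then added and fluorescence change tracked over 30 min.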
# gsp antag – gsp mutant antagonism; gsp-mutant cells, cAMP HTRF, 30 min; control for the full effect not named in the record; Potency, µM (highest dose often 76.9 µM), inactives show at the top dose activity change, negative = inhibition, hits mostly inhibitors; 0.4% of 340,000 active; active = falling curve of any shape with a large fitted effect; inconclusive = falling curve, mostly with a smaller effect; inactive = flat or rising curve; cell line not stated here;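 further: intracellular cAMP measured with PDE inhibitor Ro 20-1724 present during compound exposure; potency means the concentration at half of the fitted maximal effect; on the % scale 0 is the no-effect control and ±100 the full control effect; nearly all actives have a fitted effect of over 65% in size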
#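 Cells in G418 medium, seeded 16-24 h, 37C; buffer exchange to DPBS + 1 mM CaCl2, 0.5 mM MgCl2, 0.05% BSA; cpds in DMSO + […] (300 uM stock), 30 min 37C; HTRF cAMP detection.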
# Starred values were filed as active, the others as inactive; ? = inconclusive; / = no result given; [ ] = remark or other dose.
SMILES,Menin MLL FP FL,ClpP mod,gsp agonist,D2 PAM,TRPV1 potentiator,Sfp inh,gsp antag
CCCOc1ccc(C2C(=O)N(C3CCCCCC3)CC(=O)N2Cc2ccco2)cc1OC (stereo unspecified),-0.3,-1.0%,-14%,-12,-15,11%,-2%
COc1ccc(N=C2C(=S)N(c3ccc(OC)cc3)C(=NS(=O)(=O)c3ccccc3)N2c2ccccc2)cc1,/,28µM*,-4%,4,/,/,7%
Cn1cnnc1SCC(=O)Nc1cccc(S(=O)(=O)N2CCOCC2)c1,-0.3,-1.6%,?,-5,3,15%,16%
CC(/C=N/NC(=O)c1ccc(Br)cc1)=C\c1ccccc1,0.5,-3.1%,?,-23,-1,-3%,6%
Cc1ccc(S(=O)(=O)N2CCCC(C(=O)NCCc3ccc(Cl)cc3)C2)cc1 (stereo unspecified),/,-2.2%,-77%[inhibitor],-27,/,/,/
CC1=C(C)CS(=O)N(S(=O)(=O)c2ccccc2)C1 (stereo unspecified),0.2,0.4%,18%,-10,1,14µM*,18%
N#Cc1c(N2C(=O)c3ccc(C(=O)O)cc3C2=O)sc2c1CCCC2,3.0,1.5%,3%[15.4 µM],-7,-1,26%,-6%
C=CCNCC(=O)N1N=C(c2ccc3ccccc3c2)CC1c1ccc(OC)cc1 (stereo unspecified),-2.4,/,4%[15.4 µM],-6,-11,-30%,/
Cc1occc1C(=O)NC(C)CCc1ccccc1 (stereo unspecified),0.8,1.0%,-19%,8,-8,7%,10%
Cc1cc(NC(=O)CC(CN(C)S(=O)(=O)c2ccccc2)c2ccccc2)no1 (stereo unspecified),1.8,1.8%,?,0,-7,12%,-6%
COCCNC(=O)C1Nc2ccc(C(F)(F)F)cc2C2C=CCC12 (stereo unspecified),/,-11%,/,3,/,/,9%
CCOc1cc(C2/C(=C(/O)c3ccc(OC(C)C)cc3)C(=O)C(=O)N2CCCOC)ccc1O (stereo unspecified),5.2,-0.5%,4%,-2,18,-15%,3%
Cc1cc(C)nc(NC(=O)c2ccc([N+](=O)[O-])o2)n1,7.7,24%,29%,26,-2,21%,18%
CCN1/C(=C/c2ccc3ccccc3[n+]2CC)C=Cc2ccccc21,?,3.1%,13%,-46,6,50µM*,-30%
CN(C(=O)CCn1c(=S)oc2ccccc21)C1CCCCC1,0.6,0.5%,?,-4,-17,5%,1%
CN(CC(=O)O)S(=O)(=O)c1ccc2c(c1)NC(=O)CC(=O)N2,-2.2,/,23%[15.4 µM],3,10,10%,-3%
CC(C)(C)OC(=O)N1CCCC(C(=O)Nc2ccc(C(=O)N3CCCCC3)cc2)C1 (stereo unspecified),/,0.4%,-47%[inhibitor],0,/,/,3%
O=C(O)C1CCN1C1CCCCC1 (stereo unspecified),0.5,-2.6%,-51%[inhibitor],-4,2,-9%,0%
CSC[C@H]1CN(c2ccc(Br)cc2)C(=O)[C@@H]1CC(=O)Nc1ccccc1,/,1.3%,-73%[inhibitor],2,/,/,/
CCc1ccc(NC(=O)c2cc3c(C)nc4ccccc4c3o2)cc1,-0.4,/,4%[15.4 µM],-12,1,-4%,?
CCNc1nc(N)c(C(=C(C#N)C#N)c2ccccc2)s1,5.0,24%,?,-39,0,-4%,-9%
Nc1ccc(S(=O)(=O)Nc2nccc(/C=C/c3cccc(Br)c3)n2)cc1,-0.2,0.2%,-2%[15.4 µM],-1,8,9%,-1%
CCc1cc2c(cc3c(=O)n(CC(=O)N4CCN(c5ccccn5)CC4)nc(CC)n32)s1,1.0,-13%,-3%,-1,14,-12%,-11%
O=C(Nc1ccc(-c2nc3ccccc3s2)c(O)c1)C1=COCCO1,5.2,-5.3%,?,-18,7,-2%,1%
O=C(Nc1ccc(Cl)c(S(=O)(=O)N2CCOCC2)c1)c1ccc(Cl)nc1,/,-3.7%,-11%,-2,-20,/,-19%
OC1(c2cccc(C(F)(F)F)c2)CCN(Cc2nc(-c3cnccn3)no2)CC1,2.9,-1.0%,-30%,-14,-2,9%,-5%
COc1cccc(N(CC(=O)NC2CCCCC2)C(=O)CCC(=O)Nc2nc(C)cs2)c1,1.0,/,-15%,-11,-6,12%,1%
COc1ccc(NC(=O)C2C3C=CC(O3)C2C(=O)NCc2cccnc2)cc1 (stereo unspecified),0.2,1.1%,2%,-4,-4,14%,11%
O=C(COC(=O)c1ccc(Sc2ccccc2)c([N+](=O)[O-])c1)NC1CCCc2ccccc21 (stereo unspecified),-1.9,-0.5%,-10%,-3,5,8%,-3%
CN1C(=O)[C@H]2[C@@H](/C=C/c3ccccc3)N3C(=O)CN(CCO)C(=O)[C@@]3(Cc3ccccc3)[C@H]2C1=O,17,-1.3%,0%,-4,-5,1%,10%
CCCc1ccc(O)c(N=Cc2cc(Br)cc(OCC)c2O)c1,?,/,-4%,17,27,-13%,-25%
COc1cc2c(cc1OC)C(C)N(C(=O)c1ccc(C)o1)CC2 (stereo unspecified),1.1,/,-21%,1,-4,6%,7%
CCN(CCO)c1ncnc2c1sc1nc(CC(C)C)c3c(c12)CC(C)(C)OC3,0.5,?,0%,-7,1,9%,13%
CCOC(=O)c1c(-c2ccc(C)cc2)csc1NC(=O)c1cccc(N2C(=O)CCC2=O)c1,0.9,-8.1%,1%[15.4 µM],-16,0,18%,3%
COc1ccc(OC)c(C(=O)COC(=O)c2ccc(C)o2)c1,11,-2.2%,0%,-9,4,?,4%
CCCCCNC(=O)[C@@H]1CSC2c3ccccc3C(=O)N21 (stereo partly specified),2.6,-1.6%,29%,-8,11,-3%,-5%
COC(=O)c1nn(-c2ccc3c(c2)CCN3C(C)=O)cc1O,-1.0,7.1µM*,?,0,5,-4%,5%
O=C(N/N=C/c1ccccc1[N+](=O)[O-])c1ccc(CN2CCOCC2)cc1,-2.8,/,-3%,0,-23,5%,-15%
COc1cccc(CNS(=O)(=O)c2cc(Br)ccc2Br)c1,/,0.5%,11%,3,/,/,/
CCOC(=O)c1c(NC(=O)CSc2nnnn2C)sc(C)c1C,1.6,-0.5%,2%,-8,-4,11%,-7%
COCCN(C(=O)c1ccc(-c2ccc(Cl)cc2)o1)c1c(N)n(Cc2ccccc2)c(=O)[nH]c1=O,/,-13%,-1%[15.4 µM],10,5,/,-9%
Cc1ccc(NC(=O)c2nc[nH]c2C(=O)N2CCN(C(=O)OC(C)(C)C)CC2)cc1,/,0.6%,/,-7,-2,/,-2%
CC(C)c1ccccc1NC(=O)COC(=O)Cc1cccc(C(F)(F)F)c1,5.3,-8.6%,22%,3,0,7%,-10%
O=C(O)CCC(NC(=S)Nc1ccccc1)C(=O)O (stereo unspecified),2.5,/,-7%[15.4 µM],-11,15,-14%,12%
Cc1ccc(-n2sc3ccccc3c2=O)cc1S(=O)(=O)N1CCCCC1,5.1,-0.9%,/,-7,-15,1.6µM*,-22%
Cc1cc(Br)ccc1SCC(=O)NNC(=O)c1ccco1,/,1.0%,-3%,-3,30,/,1%
O=C(CCCn1c(=S)[nH]c2ccsc2c1=O)Nc1ccc(F)cc1,/,-0.4%,?,-18,/,/,/
CC(C)(C)NC(=O)CCN(/N=C/c1ccncc1)C1=NS(=O)(=O)c2ccccc21,-11,/,-47%[inhibitor],-3,-13,3%,-2%
S=C(NCCN1CCOCC1)N/N=C/c1cccs1,-3.4,-0.1%,-19%,-7,2,-2%,8%
COc1ccc2nc(SCC(=O)NCc3ccc4c(c3)OCO4)[nH]c2c1,6.7,-1.1%,?,-4,-15,2%,-1%
CCOc1ccccc1NC(=S)NCCc1ccc(F)cc1,-1.2,1.4%,-35%[inhibitor],4,-11,24%,3%
O=c1[nH]c2ccccc2c(O)c1-c1cc2ccccc2oc1=O,-0.3,/,/,/,0,15%,/
COc1ccccc1N1CCN(CC(=O)c2ccc3ccn(C(C)=O)c3c2)CC1,7.8,?,-15%,-16,14,?,-2%
Cc1cc(-c2nn(-c3ccccc3F)cc2CN2CCN(c3ccccn3)CC2)c(C)s1,0.4,/,?,-10,-8,?,-2%
COc1cccc(C(=O)NCCCNc2nc3cc(C)cc(C)c3cc2C#N)c1,/,-22%,-72%,3,/,/,/
COc1cc(S(=O)(=O)N2CCCC2)c(C)cc1C,-1.9,/,-10%,-7,-23,-9%,-3%
O=c1[nH]cnc(O)c1C(c1ccc(Br)cc1)c1c(O)nc[nH]c1=O,4.6,3.9%,1%,-17,/,-7%,8%
O=C(CC1CCCC1)N1CCN(S(=O)(=O)c2cccc(Br)c2)CC1,/,5.2%,-35%[inhibitor],-9,/,/,/
CC(C)CN(C(=O)CN1CCN(c2ccc(F)cc2)CC1)c1c(N)n(CC(C)C)c(=O)[nH]c1=O,5.8,-0.8%,-38%[inhibitor],16,-1,0%,2%
O=c1cc(O)c2c(=O)n(-c3ccccc3)c3ccccc3c2o1,?,0.2%,-44%,9,11,5%,-10%

# Just Sfp inh and gsp antag, for 2 of the compounds above:
compound | Sfp inh | gsp antag
O=c1[nH]cnc(O)c1C(c1ccc(Br)cc1)c1c(O)nc[nH]c1=O | -7% | 8%
Nc1ccc(S(=O)(=O)Nc2nccc(/C=C/c3cccc(Br)c3)n2)cc1 | 9% | -1%

# The listing continues.
SMILES,Menin MLL FP FL,ClpP mod,gsp agonist,D2 PAM,TRPV1 potentiator,Sfp inh,gsp antag
CCCCCOc1ccc(NC(=O)CCCC(=O)O)cc1,-0.9,-29%,-15%,-2,-13,19%,3%
OCC1(Cc2ccccc2)CCCN(C2CCCC2)C1 (stereo unspecified),4.7,0.5%,0%,-24,1,6%,2%
Cc1cccc(OCc2nnc(SCC(=O)c3c(N)n(C4CC4)c(=O)[nH]c3=O)o2)c1,/,-0.8%,4%,-8,-3,/,10%
Cc1nc2ccccc2n1C1CC(=O)N(Cc2ccccc2)C1=O (stereo unspecified),3.3,1.5%,-5%,-1,8,6%,?
CC(=O)c1nc(N2C(=O)C3CC=C(C)CC3C2=O)sc1C (stereo unspecified),-0.7,-1.5%,?,6,4,-5%,2%
C/C(=N\Nc1ccccc1Cl)c1ccc(-n2ccnc2)cc1,-1.6,-12%,-1%[15.4 µM],-9,7,-18%,4%
Cc1nnc(SC(C)C(=O)NC2CCCCC2)s1 (stereo unspecified),/,/,-6%[15.4 µM],4,3,/,9%
